Screens: PubChem, ICCB-Longwood Screening Facility, Harvard Medical School
KSHV LANA nucl: inhibitors of KSHV LANA-nucleosome binding, primary screen, biochemical, fluorescence polarization, FITC-LANA1-23, chicken nucleosomes; FITC-LANA1-23 / chicken nucleosome fluorescence polarization; active compounds read low; z-score (no concentration beside the values); 51,000 compounds, 0.3% hits;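 active = both repeat wells score below -2 in polarization z-score versus plate sample wells, excluding overly bright wells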;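 note: 100 nL library stock added to about 30 µL; numbers are from one replicate; some results filed as inactive read as strong as hits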
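System – purified chicken nucleosomes with FITC-labelled LANA N-terminal peptide (1-23) · Amount – 240 nM purified chicken nucleosomes (480 nM peptide binding sites), final · Also added – 50 nM FITC-LANA1-23 probe · Medium – TEN-BT buffer, pH 7.5 · Incubation – compound with peptide–nucleosome mix 10–45 min at room temperature · Detection – fluorescence polarization, ex 480 nm, em 535 nm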
Ab BasE inh: BasE siderophore enzyme inhibitors, primary screen, biochemical, Acinetobacter baumannii ATCC 17978, fluorescence polarization. purified BasE, fluorescence polarization binding displacement. inhibition, % (no concentration beside the values). 84,000 compounds, 0.1% hits. AID 485350, 2010;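 active = both replicates above 25% with normal brightness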;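 note: 0% = negative plate control signal and 100% = positive plate control signal; stock transfer was 100 nL into about 30 µL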
An asterisk follows results filed as active; · = not tested or not shown; & = joins results of further samples. Not all compounds are listed; count on the stated rates, not on these rows.

SMILES	KSHV LANA nucl	Ab BasE inh
COc1ccc(C2C3=C(CC(c4ccco4)CC3=O)Nc3ncnn32)cc1 (configuration not stated)	0.63	5.7
CCN(CCCN)c1ccccc1	0.16	-1.6
COc1ccccc1CN(C)C(=O)CSc1nc(C)c(C)n1C1CCCC1	·	1.6
COc1ccc(-c2nnc(SCC(=O)c3ccccc3)o2)cc1	0.79	0.4
Cc1ccc(-c2ccc(=O)n(CC(=O)N3CC(C)CC(C)C3)n2)cc1 (configuration not stated)	-0.45	-2.4
O=C(Nc1nncs1)c1cc2c(s1)CCC2	·	1.4
Cc1cc(NC(=O)COc2ccc3oc4ccccc4c3c2)no1	·	2.6
O=C(NCc1ccco1)c1noc2c1CCc1ccccc1-2	-0.42	2.1
Cc1cccc(-n2nnnc2SCC(=O)N2CC(C)OC(C)C2)c1 (configuration not stated)	·	0.3
O=C(COC(=O)c1cc[n+]([O-])cc1)c1ccc2[nH]c(=O)[nH]c2c1	·	2.1
CC(C)C(=O)N1CCN(c2ccc(NC(=O)c3ccccc3)cc2)CC1	0.27	2.3
O=c1nc2s/c(=C\c3ccco3)c(=O)n2nc1Cc1ccccc1	-0.44	3.1
CN(C)S(=O)(=O)c1ccc2oc3nnc(SCc4ccccc4)n3c2c1	·	-0.8
CCOC(=O)Cn1nc(C(F)(F)F)c(Cl)c1C	-0.82	0.5
O=c1[nH]c(O)c(C=NCCSCc2cccs2)c(=O)[nH]1	·	-9.2
CCCc1cc(C(=O)Nc2cccc(C(F)(F)F)c2)no1	0.12	2.0
COc1ccc(Nc2oc(-c3ccccc3)nc2C#N)cc1	-0.53	0.1
O=C(c1ccc2nc(/C=C(\O)c3ccc(Cl)cc3)c(=O)[nH]c2c1)N1CCN(c2ccco2)CC1	0.15	4.9
COc1ccc2ccccc2c1C=C1C(=O)OC2(CCCC2)OC1=O	·	2.1
Cc1cc(Cl)ccc1OCC(=O)N1N=C(C(F)F)CC1(O)C(F)F (configuration not stated)	-0.66	2.9
Nn1cc(-c2ccccc2)nc1SC(F)F	·	-0.3
Brc1ccc(-c2cn3ccsc3n2)cc1	1.1	·
CSc1ccccc1NS(=O)(=O)c1ccccc1	-0.95	0.8
CN(Cc1ccccc1)C(=O)CN(C1CCCCC1)S(C)(=O)=O	-0.092	-3.7
N#CCCn1c(SCC(=O)Nc2ccc(S(=O)(=O)N3CCCCC3)cc2)nc2ccccc21	·	-2.4
CN(Cc1nc2ccccc2c(=O)[nH]1)C(=O)COc1ccc2c(c1)CCC2	·	21
COCCn1c(C)cc(C(=O)CSc2nc(C)c(C)n2C2CCCCC2)c1C	·	-0.3
O=C(NCC1CC1)Nc1ccccc1F	0.39	-0.2
Cc1ccc2oc(-c3cccc(Br)c3)nc2c1	-0.9	-0.1
O=C1CCCS(=O)(=O)CC1	0.11	-0.6
O=C(OCc1cc(Cl)cc2c1OCOC2)c1c[nH]c2ccccc12	·	-2.1
COC(=O)N1N=C(C)CC1(O)c1ccc(Cl)cc1 (configuration not stated)	0.31	-0.2
COc1cccc(C2C3CN(C(C)=O)CC=C3C(C#N)=C(N)C2(C#N)C#N)c1 (configuration not stated)	-0.4	1.9
CC(C)NC(=O)COc1ccc(S(=O)(=O)N(C)Cc2ccccc2)cc1	0.68	4.4
O=C1OCC(c2ccccc2)=C1c1ccc(S(=O)(=O)N2CCOCC2)s1	·	-1.3
COCC(C)n1c(COc2ccccc2F)nn(CN2CCN(c3ccc(O)cc3)CC2)c1=S (configuration not stated)	·	-4.2
N/C(COc1cccc(C(F)(F)F)c1)=N\O	-0.97	-0.5
CCc1ccccc1N/C=C(\C#N)c1nc2ccccc2[nH]1	-0.36	-3.1
COC(=O)CN(c1ccc(C(C)C)cc1)S(C)(=O)=O	-0.35	0.9
CCN(CC)S(=O)(=O)c1ccc(C(=O)N2CCc3ccccc32)cc1	·	0.9
O=C(CCCC1CCCCC1)NCC1CCCO1 (configuration not stated)	-1.9	2.3
c1ccc2c(c1)oc1c(NCC3CCCCC3)ncnc12	·	2.6
O=C1NC(Cc2c[nH]c3ccccc23)C(=O)N1CN1CCCCC1 (configuration not stated)	·	-1.3
Cc1ccc(N/N=C2/C(=O)C3(C)CCC2C3(C)C)cc1 (configuration not stated)	-0.69	1.3
NC(N)=NS(=O)(=O)c1ccc(N=Cc2cccs2)cc1	·	0.3
CS(=O)(=O)Nc1ccc(C2=NN(S(C)(=O)=O)C(c3ccc4c(c3)OCO4)C2)cc1 (configuration not stated)	0.01	-0.8
Fc1ccc(CNC(=S)NCCN2CCOCC2)cc1	·	1.2
Cc1ccc(C(=O)NC(Nc2cc(C)on2)(C(F)(F)F)C(F)(F)F)cc1	-0.6	0.4
c1ccc2[nH]c(SCc3ccncc3)nc2c1	-0.43	-0.9
O=C(OCCO)c1cccc2c1-c1ccccc1C2=O	·	0.2
O=C(CSc1ccc2c(c1)OCCO2)N1CCC(c2ccccc2)=N1	·	1.6
Cc1ccc(N2COc3ccc4c5c(c(=O)oc4c3C2)CCCC5)c(C)c1	-0.89	0.0
Oc1[nH]c2ccccc2c1C=NCc1ccc2c(c1)OCO2	2.7	0.2
COc1ccccc1N1CCNC(C)C1=O (configuration not stated)	-0.16	1.6
CC1CCCCN1S(=O)(=O)CCNC(=O)c1ccccc1 (configuration not stated)	0.69	0.6
S=c1[nH]nc(-c2c[nH]c3ccccc23)n1CC1CCCO1 (configuration not stated)	·	2.2
CCS(=O)(=O)C1=NN2C(=N)/C(=C\c3ccc(-c4ccccc4)o3)C(=O)N=C2S1	0.45	4.5
CC(C)CN=C1NC(=O)C(CC(=O)NC2CC2)S1 (configuration not stated)	·	2.3
CCOC(=O)/C=C1\SCC(=O)N1CC(=O)Nc1ccc(OC)c(Cl)c1	·	-1.0
Cc1ccc(-n2nc(C)c3nc(CCC(=O)O)c(=O)n(C)c32)cc1	0.36	0.1

Another view of some results above:
SMILES,KSHV LANA nucl,Ab BasE inh
O=C(CSc1ccc2c(c1)OCCO2)N1CCC(c2ccccc2)=N1,·,1.6
Cc1ccc(N2COc3ccc4c5c(c(=O)oc4c3C2)CCCC5)c(C)c1,-0.89,0.0
Oc1[nH]c2ccccc2c1C=NCc1ccc2c(c1)OCO2,2.7,0.2
COc1ccccc1N1CCNC(C)C1=O (configuration not stated),-0.16,1.6

Further structures:
SMILES	KSHV LANA nucl	Ab BasE inh
O=C(NCc1cccnc1)[C@H](Cc1ccccc1)N1Cc2ccccc2C1=O	0.38	3.6
CN1CCCc2cc(/C=N/n3c(C(F)(F)F)n[nH]c3=S)ccc21	·	0.9
c1ccc(OCc2nc(-c3ccccc3)no2)cc1	-0.027	-2.1
COc1ccccc1CN(C)CC(=O)NC(=O)NC1CCCCC1	·	-0.2
COc1ccc(NC(=O)c2ccc(N3C(=O)c4ccccc4C3=O)cc2)cc1	·	3.8
Cc1cccc(N2CCN(CCNC(=O)c3cc4sccc4n3C)CC2)c1C	0.18	-0.5
CCOc1ccc(/C=C2\SC(=Nc3cccc(C)c3C)NC2=O)cc1	·	4.3
CC1CCCCC1NC(=O)CSc1nnc(-c2ccco2)n1Cc1ccccc1 (configuration not stated)	·	0.6
Cc1nnc2n(c1=O)N=C(N)CS2	-0.39	1.8
O=C(Nc1ccc2nsnc2c1NC(=O)c1ccc2nsnc2c1)c1ccc2nsnc2c1	-0.63	0.3
Cc1ccc(N=C(NN)c2ccc3ccccc3n2)cc1	-0.31	3.5
COC(=O)c1sc(-c2cccs2)cc1NS(=O)(=O)c1cn(C)cn1	-0.73	-2.9
C/C(=N\NC(=O)C1CC1)c1ccc(-n2ccnc2)cc1	·	-1.3
CCc1cccc(CC)c1N=C1SCCN1CCO	·	0.8
CC(C)c1ccc(NC(=O)N2CCC(c3nc4ccccc4o3)CC2)cc1	-0.017	2.4
O=C(NCCc1ccccc1)c1cc2c(s1)CS(=O)(=O)C2	0.7	-2.5
Clc1ccc(Oc2nc(Oc3ccc(Cl)cc3)nc(N3CCSCC3)n2)cc1	·	1.5
Cc1nn(-c2ccccc2)c(Cl)c1C(=O)NCCSCc1ccco1	·	-0.3
COc1ccc(CCC(=O)NCc2cccs2)cc1	·	0.5
Cc1cnc(C(=O)OC(C)C(=O)N(C)c2ccccc2)cn1 (configuration not stated)	·	1.9
O=P(O)(CN1CCCCCC1)CN1CCCCCC1	-1.4	1.9
COc1ccc(-c2nnc(NC(=O)c3ccc4c(c3)OCO4)s2)c(OC)c1	-1	0.5
NC(=O)c1cc(NC(=O)CCS(=O)(=O)c2ccccc2Cl)cc(C(N)=O)c1	·	2.3
CC(=O)OCCNc1cc(Cl)c2noc3c2c1C(=O)c1ccccc1-3	-3.7*	8.2
NC(=O)COC(=O)c1cccc(S(=O)(=O)N2CCN(c3ccccc3)CC2)c1	·	2.7
C/C(=N\NC(N)=S)C1(C)N(O)C(C)(C)C(c2cccs2)=[N+]1[O-] (configuration not stated)	·	1.8
N#Cc1ccc(Br)cc1	·	-0.6
CCCN(CCC)S(=O)(=O)c1c(C(=O)OCC)c(C)n(C)c1C	·	0.9
O=C(c1cc2c(s1)CCC2)N1CCN(S(=O)(=O)c2cccc(Br)c2)CC1	·	2.5
O=C(NCc1ccco1)C(=S)NCc1ccccc1	-0.13	2.0
ON(/C=C1\C=Nc2ccccc21)c1ccccc1	-0.48	3.2
CN(CC(=O)Nc1ccccc1Cl)Cn1nc(-c2ccco2)oc1=S	·	1.4
CS(=O)(=O)c1ccccc1C(=O)N(Cc1cccs1)c1ccc2c(c1)OCCO2	·	-1.7
CN1C2CC(OC(=O)[C@H](CO)c3ccccc3)CC1C1OC12 (some centres not stated)	0.72	-0.8
COc1ccc(-c2nc(CN3C(=O)CSc4nc(C)cc(C)c43)c(C)o2)cc1OC	-0.36	0.4
CCCN1CCN(C(=O)c2cccc3c2C(=O)N(Cc2cccnc2)C3)CC1	-0.73	2.8
CN1CCN(C(=O)c2cc(Oc3c(F)c(F)c(F)c(F)c3F)cc(C(=O)N3CCN(C)CC3)c2)CC1	·	1.7
CC(C)c1ccc(CN2C(=O)c3ccccc3C2=O)cc1	·	-3.2
O=C(/C=C/c1ccc2ccccc2n1)N1CCN(c2ccccc2)CC1	·	-1.7
c1cc2nsnc2c2c1Nc1nc3nonc3nc1N2	0.57	11
Clc1ccccc1OCCn1cnc2ccccc21	-0.15	2.3
CCCn1c(=O)c2c(nc3oc(-c4ccccc4)cn32)n(C)c1=O	1.5	-0.8
CC1(C)CC(=O)C/C(=N\NC(=O)CCc2ccccc2)C1	0.35	3.3
Cc1cc(C)n2cc(CN(C)Cc3ccccc3)nc2n1	·	1.2
CC(C)CC(NC1CCS(=O)(=O)C1)C(=O)O (configuration not stated)	-0.64	1.1
O=C(COC(=O)Cn1[nH]c(=O)c2ccccc2c1=O)Nc1ccc2c(c1)OCO2	·	5.4
O=c1c2ccccc2c(C=NCCCn2ccnc2)c(O)n1-c1ccccn1	·	0.4
CCCCc1ccc(-c2csc(N)n2)cc1	0.27	·
COc1cc(NC(=O)Cn2cnc3ccc(S(=O)(=O)N4CCC(C)CC4)cc3c2=O)cc(OC)c1OC	0.26	-0.7
CCOC(=O)C1C(=O)Nc2nc3ccccc3n2C1C(C)C (configuration not stated)	-0.43	0.8
CCCCC(=O)n1c(=O)oc2ccc(C)cc21	0.11	-8.5
COC(=O)CSc1nc2c(cnn2-c2ccccc2)c(=O)[nH]1	0.013	2.1
COc1ccc(OCc2nnc(SCC(=O)N(C)c3ccccc3)n2Cc2ccco2)cc1	·	-0.5
COC(=O)c1ccc(CNC(=O)CNc2cc(C(F)(F)F)ccc2N2CCOCC2)cc1	·	3.0
Cc1cc(Cl)nc(C)n1	1	-1.6
S=c1[nH]ncn1-c1ccccc1	0.036	6.0&1.6
Cc1sc(NC(=O)C2=NNC(=O)CC2)nc1-c1ccc(F)cc1	·	-2.2
Brc1ccccc1NC1=NCCC1	·	0.7
Brc1cc(I)ccn1	0.13	-0.8
C=CCN(CC=C)C(=O)CSc1nnc2c3ccccc3n(C)c2n1	-0.61	4.8

Compounds from the list above that contain a COOH group, in the order listed:
SMILES	KSHV LANA nucl	Ab BasE inh
Cc1ccc(-n2nc(C)c3nc(CCC(=O)O)c(=O)n(C)c32)cc1	0.36	0.1
CC(C)CC(NC1CCS(=O)(=O)C1)C(=O)O (configuration not stated)	-0.64	1.1

Grouped by structure, the compounds so far containing bromine (6)
SMILES	KSHV LANA nucl	Ab BasE inh
Brc1ccc(-c2cn3ccsc3n2)cc1	1.1	·
Cc1ccc2oc(-c3cccc(Br)c3)nc2c1	-0.9	-0.1
N#Cc1ccc(Br)cc1	·	-0.6
O=C(c1cc2c(s1)CCC2)N1CCN(S(=O)(=O)c2cccc(Br)c2)CC1	·	2.5
Brc1ccccc1NC1=NCCC1	·	0.7
Brc1cc(I)ccn1	0.13	-0.8

(more compounds)
SMILES	KSHV LANA nucl	Ab BasE inh
CC1(C)C2CC=C(C3N=C(N)Nc4nc5ccccc5n43)C1C2 (configuration not stated)	·	1.9
Cc1onc(-c2ccccc2)c1C(=O)/C=C/N(C)C	·	0.5
COc1ccc(OC)c(-c2csc(NC(=O)C3=NN(C)C(=O)CC3)n2)c1	·	-3.3
O=c1c2cc(-c3ccccc3)sc2ncn1/N=C/c1cccs1	·	-2.5
Cc1ccc(C(=O)C2CC2)cc1	·	-1.0
CC1CCC2(CC1)c1cnn(C(C)C)c1N=C(c1ccc(F)cc1)N2C (configuration not stated)	·	-0.3
